BRCT PPI green: blocks human BRCA1 BRCT binding to phosphopeptide, green readout; BRCA1 BRCT-phosphopeptide binding, green fluorescence polarization; hit rate 0.05% among 75,000; P38398; Potency, µM (doses to about 76.9 µM), inactives show top-dose activity change, negative = inhibition, actives largely listed as inhibitors;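 note: potency is the fitted concentration of half-maximal effect; plate controls were peptide without protein for full effect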
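Compounds were incubated for 12 min at room temperature with a complex of 100 nM fluorescein-tagged pBACH1 decapeptide and 250 nM His-tagged BRCT protein. Buffer was phosphate pH 7.3 with EDTA, DTT and Tween 20. Disruption of binding lowers the polarization signal.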
Rhodamine autofl: rhodamine region autofluorescence; Rhodamine-region fluorescence, 547/598 nm, Tris buffer; hits give high values; max dye-equivalent concentration, M; hit rate 0.05% among 59,000; in the data active = max dye-equivalent concentration above about 11 nM; inconclusive = between about 1.1 nM and that limit
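Read-out is relative fluorescence at 547 nm excitation and 598 nm emission, expressed as dye-equivalent concentration using rhodamine standards on every plate. Each compound was profiled across a concentration series after 15 min in 100 mM Tris, pH 8.0.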
Casp1 inh: blocks human caspase-1 allosterically or competitively | Potency, µM (highest dose often 57.5 µM), for inactives: top-dose activity change, negative = inhibition, actives largely listed as inhibitors | P29466 | hit rate 0.03% among 75,000 | Caspase-1 enzyme, Ac-WEHD-AFC fluorogenic rate | AID 900;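 note: potency is the fitted concentration of half-maximal effect; plate controls were vehicle for no effect and no substrate for full effect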
DNA Pol III inh: DNA polymerase III holoenzyme inhibition; reconstituted DNA polymerase III holoenzyme replication, biochemical; Potency, µM (titrated, usually from 57.1 µM), inactives show top-dose activity change, negative = inhibition; hit rate 0.25% among 71,000; note: potency is the fitted concentration of half-maximal effect; % is set by controls: 0 for no effect and ±100 for the full control effect
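Reconstituted *E. coli* holoenzyme (0.35 nM Pol III, 1 nM beta, 154 nM SSB, 2 nM primase) was preincubated with compound for 15 min at RT. Synthesis on 1.4 nM ssM13Gori ran 35 min, then was stopped with PicoGreen/EDTA and read as dsDNA fluorescence.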
USP2a inh: USP2a (human) protease inhibition | O75604 | USP2a enzymatic assay, qHTS inhibition | Potency, µM (series often up to 38.3 µM), for the others: at the highest dose activity change, negative = inhibition, usual class: inhibitors | hit rate 0.1% among 60,000;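 note: potency is the fitted concentration of half-maximal effect; nearly all actives have a fitted effect of over 60% in size; plate controls were DMSO for no effect and NEM full inhibition control for full effect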
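USP2 core (20 nM final) was preincubated with compound for 30 min at RT in 20 mM Tris-HCl pH 8.0, 2 mM CaCl2, 2 mM beta-mercaptoethanol; Ub-PLA2 (20 nM) plus NBD C6-HPC (20 uM) then added, fluorescence read after 2.5 h.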
BRCT inh red: disrupts BRCA1 BRCT binding to phosphoprotein, red fluorophore readout; P38398; BRCT-phosphopeptide binding, red fluorescence polarization; Potency, µM (titrated, usually from 76.9 µM), inactives show at the top dose activity change, negative = inhibition, most hits filed as inhibitors; hit rate 0.03% among 75,000; AID 892; note: % is set by controls: 0 for no effect and ±100 for the full control effect
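Fluorescence polarization: 100 nM His-tagged BRCA1 BRCT with 100 nM TAMRA-labelled phospho-BACH1 decapeptide, phosphate buffer pH 7.3 with 150 mM NaCl, DTT, 0.01% Tween 20; 12 min RT. Binding inhibition seen as FP decrease.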
Casp7 inh: allosteric or competitive inhibitors of human caspase-7; P55210; recombinant caspase-7, Ac-DEVD-AFC fluorescence rate; Potency, µM (doses to about 57.5 µM), inactives show at the top dose activity change, negative = inhibition, hits mostly inhibitors; hit rate 0.02% among 75,000; active = well fitted inhibition curve with a large enough effect in the main read-out, with a control signal flat, not every such curve was filed as active; inconclusive = small, poorly fitted or top-dose-only effect, or a change in a side signal; note: potency is the fitted concentration of half-maximal effect; % of control where 0% means no effect
Active calls of the source: *; i = inactive; u = inconclusive; x = no result given; & = joins results of further samples; [ ] = another dose, or the depositor's remark. Unless noted, calls come from the whole dose curve; as a rule, active = well fitted curve in the direction sought with a large enough effect; inconclusive = small, poorly fitted or top-dose-only effect, or another doubt; inactive = no such curve, though single readings can be large; an effect the other way counts as inactive or inconclusive. The list is partial; the hit share may differ from the screen's.

[1] CN(C)[C@@H]1C(=O)C(C(N)=O)=C(O)[C@@]2(O)C(=O)C3=C(O)c4c(O)ccc(Cl)c4[C@@](C)(O)C3C[C@@H]12 (stereo not given in full)
[2] Oc1ccccc1O
[3] CC[C@@H]1CN2CCc3cc(OC)c(OC)cc3[C@H]2C[C@@H]1C[C@H]1NCCc2cc(OC)c(OC)cc21
[4] COc1ccc(C(=O)N2CCCC2=O)cc1
[5] CC(=O)N1CCN(c2ccc(OC[C@H]3CO[C@](Cn4ccnc4)(c4ccc(Cl)cc4Cl)O3)cc2)CC1
[6] CNCCC(Oc1ccc(C(F)(F)F)cc1)c1ccccc1 (stereo not given)
[7] CCC1(c2ccc(N)cc2)CCC(=O)NC1=O (stereo not given)
[8] COC(=O)NC(=S)Nc1ccccc1NC(=S)NC(=O)OC
screen / no.	1	2	3	4	5	6	7	8
Rhodamine autofl	i	i	i	i	x	i	x	x
Casp1 inh	x	-1.4%	-11.3%[25.7 µM]	-0.2%&-3.7%&-17.6%	0.4%	1.4%	-1.0%	-1.6%
DNA Pol III inh	x	-0.4%&11.9%	-3.4%	-2.1%&-4.6%&0.4%	-2.2%	x	x	-4.0%
BRCT inh red	x	-1.4%	-2.3%[34.4 µM]	0.1%&1.1%&0.1%	-1.3%	0.3%	-1.5%	-1.6%
USP2a inh	x	-3.8%	26.2%[17.1 µM]	-5.3%&2.0%	18.3%	9.4%	-11.9%	-6.9%
BRCT PPI green	x	-1.8%	-1.7%[34.4 µM]	-0.5%&-1.9%&-4.1%	-2.5%	-0.5%[3.08 µM]	4.1%[3.08 µM]	-2.3%
Casp7 inh	x	0.5%	0.3%[25.7 µM]	0.4%&1.8%&-16.5%	-3.0%	0.0%	0.3%	0.1%

Complete entries as entered above. Screens in order: Rhodamine autofl	Casp1 inh	DNA Pol III inh	BRCT inh red	USP2a inh	BRCT PPI green	Casp7 inh
CC[C@@H]1CN2CCc3cc(OC)c(OC)cc3[C@H]2C[C@@H]1C[C@H]1NCCc2cc(OC)c(OC)cc21 is listed with i	-11.3%[25.7 µM]	-3.4%	-2.3%[34.4 µM]	26.2%[17.1 µM]	-1.7%[34.4 µM]	0.3%[25.7 µM]
COc1ccc(C(=O)N2CCCC2=O)cc1 is listed with i	-0.2%&-3.7%&-17.6%	-2.1%&-4.6%&0.4%	0.1%&1.1%&0.1%	-5.3%&2.0%	-0.5%&-1.9%&-4.1%	0.4%&1.8%&-16.5%
CCC1(c2ccc(N)cc2)CCC(=O)NC1=O (stereo not given) is listed with x	-1.0%	x	-1.5%	-11.9%	4.1%[3.08 µM]	0.3%
COC(=O)NC(=S)Nc1ccccc1NC(=S)NC(=O)OC is listed with x	-1.6%	-4.0%	-1.6%	-6.9%	-2.3%	0.1%
CNCCC(Oc1ccc(C(F)(F)F)cc1)c1ccccc1 (stereo not given) is listed with i	1.4%	x	0.3%	9.4%	-0.5%[3.08 µM]	0.0%

Next part.
[9] CC(C)NC[C@H](O)COc1cccc2[nH]ccc12
[10] CC(=O)[C@@H]1CC[C@H]2[C@H]3CC[C@H]4C[C@@H](O)CC[C@]4(C)[C@@H]3C(=O)C[C@@]12C
[11] CC(C)NC[C@@H](O)COc1cccc2[nH]ccc12
[12] O=c1[nH]c2ccccc2n1CCCN1CCC(n2c(=O)[nH]c3cc(Cl)ccc32)CC1
[13] Oc1c(Cl)c(Cl)c(Cl)c(Cl)c1Cl (tested in a mixture with another compound)
[14] CC[C@@H](CO)Nc1nc(NCc2ccccc2)c2ncn(C(C)C)c2n1
[15] CCCNc1oc(-c2cccc3ccccc23)nc1C#N
[16] CC[C@H](C)C(=O)O[C@H]1C[C@H](O)C=C2C=C[C@H](C)[C@H](CC[C@@H](O)C[C@@H](O)CC(=O)O)[C@H]21
screen / no.	9	10	11	12	13	14	15	16
Rhodamine autofl	x	i	i	i	i	i	i	x
Casp1 inh	2.2%	-1.9%[25.7 µM]	-1.7%	1.5%	3.0%&4.3%&2.1%&-3.9%[11.5 µM]	3.6%	x	-0.3%
DNA Pol III inh	-6.0%	4.3%[25.6 µM]	-4.4%	-6.4%[11.4 µM]	-5.7%&-4.5%&-8.8%&-8.7%[11.4 µM]	-3.6%	-11.6%	x
BRCT inh red	1.4%	-2.0%[34.4 µM]	2.2%	1.8%	0.4%&-1.2%&-2.8%&-0.1%[15.4 µM]	1.4%	-1.3%	0.7%
USP2a inh	-1.0%	1.0%[17.1 µM]	12.0%[17.1 µM]	43.9%[activator]	x	5.6%	2.3%	x
BRCT PPI green	-1.3%	0.7%[34.4 µM]	0.6%	-1.0%	-1.0%&-2.4%&-1.5%&-3.5%[15.4 µM]	-2.0%	-0.4%	-2.0%
Casp7 inh	1.5%	0.5%[25.7 µM]	-2.7%	2.4%	-2.1%&-2.0%&1.1%&-3.0%[11.5 µM]	0.6%	u	-0.4%

Two entries from above, with two lines to a compound:
Sequence of screens: Rhodamine autofl	Casp1 inh	DNA Pol III inh	BRCT inh red	USP2a inh	BRCT PPI green	Casp7 inh
9	CC(C)NC[C@H](O)COc1cccc2[nH]ccc12
  x	2.2%	-6.0%	1.4%	-1.0%	-1.3%	1.5%
8	COC(=O)NC(=S)Nc1ccccc1NC(=S)NC(=O)OC
  x	-1.6%	-4.0%	-1.6%	-6.9%	-2.3%	0.1%

The list goes on:
[17] CN(C)C(=O)C(CCN1CCC(O)(c2ccc(Cl)cc2)CC1)(c1ccccc1)c1ccccc1
[18] C[C@@H]1O[C@@H](O[C@H]2C[C@@H](O)[C@]3(CO)[C@@H]4C(CC[C@]3(O)C2)[C@@]2(O)CC[C@H](C3=CC(=O)OC3)[C@@]2(C)C[C@H]4O)[C@H](O)[C@H](O)[C@H]1O (stereo not given in full)
[19] CCC(C)C(=O)OC1CC(O)C=C2C=CC(C)C(CCC(O)CC(O)CC(=O)O)C21 (stereo not given)
[20] C[C@@H]1O[C@@H](O[C@H]2C[C@@H](O)[C@@]3(CO)[C@H]4[C@H](O)C[C@]5(C)[C@@H](C6=CC(=O)OC6)CC[C@]5(O)[C@H]4CC[C@@]3(O)C2)[C@@H](O)[C@H](O)[C@H]1O
screen / no.	17	18	19	20
Rhodamine autofl	i	x	x	i
Casp1 inh	-1.5%	0.7%	0.8%	-1.4%[11.5 µM]
DNA Pol III inh	1.1%	x	x	-3.8%[11.4 µM]
BRCT inh red	-1.2%	-2.2%	-0.5%	-1.2%[15.4 µM]
USP2a inh	16.8%	x	-3.9%	x
BRCT PPI green	0.4%[3.08 µM]	-2.9%	0.5%[3.08 µM]	-0.1%[15.4 µM]
Casp7 inh	2.1%	1.4%	-0.8%	-0.2%[11.5 µM]

Source: PubChem BioAssay
